Screening data (PubChem)
AF4-AF9 inh = inhibitors of human MLL-AF4/AF9 interaction. AlphaScreen, biotin-AF4 peptide binding to FLAG-AF9. hit rate 0.47% among 350,000. inhibition, % at 10 µM. P42568;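 active = every replicate reaching a set inhibition limit, whatever the replicate mean, cut at about 25% in these data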;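 note: 0% = plate neutral control median and 100% = total signal loss; the record names both 10 and 1 µM as test concentration; the first replicate is given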
Target sequence (P42568 whole entry, looked up): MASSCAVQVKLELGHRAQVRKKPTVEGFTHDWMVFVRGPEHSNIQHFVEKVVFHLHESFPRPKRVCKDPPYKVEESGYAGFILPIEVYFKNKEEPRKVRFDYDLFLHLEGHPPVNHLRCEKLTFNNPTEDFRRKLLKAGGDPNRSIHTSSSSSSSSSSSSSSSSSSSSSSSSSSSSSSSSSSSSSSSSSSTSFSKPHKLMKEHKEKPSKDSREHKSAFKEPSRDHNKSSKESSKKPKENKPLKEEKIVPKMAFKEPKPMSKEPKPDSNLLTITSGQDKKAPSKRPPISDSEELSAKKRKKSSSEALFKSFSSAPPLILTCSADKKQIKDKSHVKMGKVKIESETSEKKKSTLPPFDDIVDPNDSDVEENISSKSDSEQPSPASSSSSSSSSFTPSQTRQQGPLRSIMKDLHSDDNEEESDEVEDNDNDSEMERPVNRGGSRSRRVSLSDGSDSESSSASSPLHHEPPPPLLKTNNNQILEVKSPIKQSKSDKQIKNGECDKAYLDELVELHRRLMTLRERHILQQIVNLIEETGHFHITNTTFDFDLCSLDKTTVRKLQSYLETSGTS
FGF22 binding = binders of recombinant human FGF22 by thermal shift. calls only at 9.99 µM. SYPRO orange fluorescence; percent of sucrose octasulfate shift, DMSO zero. AID 651658. hit rate 1.5% among 340,000;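 active = melting point raised past a set limit in the mean and every replicate; three in four hits are not shown here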
Target sequence (Q9HCT0 whole entry, looked up): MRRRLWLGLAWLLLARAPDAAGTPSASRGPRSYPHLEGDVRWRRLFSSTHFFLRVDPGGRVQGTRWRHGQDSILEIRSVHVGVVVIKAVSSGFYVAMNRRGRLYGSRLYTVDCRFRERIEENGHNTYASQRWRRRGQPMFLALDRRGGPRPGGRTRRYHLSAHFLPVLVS
rRNA inh HTS = inhibitors of bacterial rRNA selective over humanized ribosomes. E. coli WT GFP vs humanized-ribosome RFP mutants, fluorescence, 24 h; stronger effect = lower value; DMSO median 0, no signal -100. GFP signal change (wild-type ribosome), % (concentration not given with the values). hit rate 1.6% among 350,000;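 active = significant combined selectivity score with lowered wild-type GFP, culture density cut under 30%, mutant RFP and density less affected; inactive = any of these conditions unmet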; note: one replicate is shown; some compounds called inactive have numbers as strong as hits
rRNA inh HTS OD600 = recorded beside rRNA inh HTS, whose call it bears; OD600 change, %; measured here: OD600 growth;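 optical density of the mix in the first replicate; 0 = DMSO median and -100 = no signal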
rRNA inh HTS RFP = also measured in rRNA inh HTS; calls as there; RFP signal change, %; measured here: RFP humanized mutant strains;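 first replicate; 0 = DMSO median and -100 = no signal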
An asterisk follows results filed as active; i = inactive; & = joins results of further samples.

No.	compound	AF4-AF9 inh	FGF22 binding	rRNA inh HTS
1	COc1ccc(-c2nc3c(C)cc(Br)cn3c2CC(C)(C)C)cc1OC	7.1	i	-18
2	CCCN(C)C[C@H]1OCCCC[C@H](C)Oc2ccc(NS(=O)(=O)c3ccccc3)cc2C(=O)N([C@@H](C)CO)C[C@H]1C	2.4	i	0
3	Cc1noc(C)c1NC(=O)Nc1cccc2c1O[C@H](CN(C)CC1CCCCC1)[C@@H](C)CN([C@@H](C)CO)C2=O	1.4	i	-4
4	C[C@@H]1CN([C@@H](C)CO)S(=O)(=O)c2ccc(Br)cc2O[C@H]1CN(C)C(=O)C1CC1	-1.2	i	-2
5	C[C@@H]1CCCCO[C@@H](CN(C)Cc2ccc(C(=O)O)cc2)[C@@H](C)CN([C@H](C)CO)C(=O)c2cc(NC(=O)Nc3ccc4c(c3)OCO4)ccc2O1	-2.4	i	2
6	Cc1ccc(/C([O-])=C(/C(=S)NCc2ccccc2)[n+]2cccc(CO)c2)cc1[N+](=O)[O-]	1.9	i	8
7	COc1ccc(Cn2cc(CN3CC(N4CCN(CCN(C)C)CC4)CS3(=O)=O)nn2)cc1 (stereo not given)	-0.4	i	9
8	Cc1cc(C(=O)Nc2cccc3c2O[C@@H](CN(C)CC2CCCCC2)[C@@H](C)CN([C@H](C)CO)C3=O)n(C)n1	-22	i	3
9	CC(=O)N(C)C[C@@H]1Oc2ncc(/C=C/c3ccccc3)cc2C(=O)N([C@H](C)CO)C[C@@H]1C	-0.8	i	3
10	Cc1ccc2nc3c(cc(S(=O)(=O)c4ccccc4)c(=N)n3C3CCCC3)c(=O)n2c1	-0.3	i	7
11	CCC(=O)N1[C@H](CO)[C@@H](c2ccc(-c3cccc(OC)c3)cc2)C12CN(C(C)=O)C2	-2.1	i	5
12	CCCc1ccc(C(O)c2ncc(-c3cccc(F)c3)[nH]2)cc1 (stereo not given)	1.4	i	-61
13	O=C(C[C@H]1CC[C@H]2[C@@H](COC[C@@H](O)CN2S(=O)(=O)c2ccc(F)cc2)O1)NCC1CC1	1.8	i	0
14	COc1ccc(S(=O)(=O)Nc2ccc3c(c2)C(=O)N([C@@H](C)CO)C[C@H](C)[C@@H](CN(C)Cc2ccc4c(c2)OCO4)OCCCC[C@H](C)O3)cc1	0.5	i	0
15	CCC(=O)N(C)C[C@H]1Oc2cc(C#CC3(O)CCCC3)ccc2S(=O)(=O)N([C@H](C)CO)C[C@@H]1C	0.1	i	-4

No.	rRNA inh HTS OD600	rRNA inh HTS RFP
1	-12	-3.4
2	-2	0.3
3	7	-1.3
4	1	-7.1
5	2	-0.5
6	9	5.6
7	7	0.9
8	11	-2.1
9	9	0.9
10	9	-2.5
11	11	-1.2
12	-79	-17
13	2	-3.6
14	-7	-0.3
15	-2	-3.5

No.	compound	AF4-AF9 inh	FGF22 binding	rRNA inh HTS
16	C[C@H](CO)N1C[C@H](C)[C@H](CN(C)C(=O)Nc2ccc(F)cc2)Oc2ccc(NS(=O)(=O)c3cccs3)cc2C1=O	-1.9	i	-3
17	COc1cccc(S(=O)(=O)N[C@@H]2CC[C@@H](CCn3cc(-c4ccccn4)nn3)O[C@@H]2CO)c1	-0.9	i	-2
18	CN1C(=O)c2cc(NC(=O)C3CCCC3)ccc2OC[C@@H]2O[C@@H](CC(=O)O)CC[C@H]21	-1.5	i	1
19	CCNC(=O)C[C@H]1CC[C@H]2[C@H](COc3ccc(NC(=O)c4cc(C)on4)cc3C(=O)N2C)O1	0.4	i	2
20	Cc1cccc(NC(=O)Nc2ccc3c(c2)C(=O)N(C)[C@H]2CC[C@H](CC(=O)O)O[C@H]2CO3)c1	5.0	i	1
21	O=C(C[C@H]1CC[C@H]2[C@@H](COC[C@H](O)CN2CC2CCOCC2)O1)NCc1ccc(Cl)cc1	0.3	i	-1
22	C[C@@H]1CN([C@H](C)CO)C(=O)c2cccc(N(C)C)c2O[C@H]1CN(C)Cc1ccc(C(F)(F)F)cc1	2.5	i	-1
23	CN(C)C(=O)c1cccc(-c2ccc([C@H]3[C@@H](CO)N(C(=O)C4CC4)[C@H]3C#N)cc2)c1	1.1	i	1
24	O=C(Cc1ccccn1)NCC[C@H]1CC[C@@H](NC(=O)c2ccccc2F)[C@@H](CO)O1	-1.3	i	2
25	CO[C@H]1CN(C)C(=O)c2cc(NC(=O)c3cnccn3)ccc2OC[C@H](C)N(CC2CC2)C[C@H]1C	-6.5	i	0
26	CC1(C(=O)NCc2cccs2)Cc2c(-c3ccc4c(c3)OCO4)ccnc2O1 (stereo not given)	0.6	i	-13
27	CN(C)C(=O)C[C@@H]1CC[C@@H]2[C@H](COC[C@@H](O)CN2CC2CCCC2)O1	-11	i	0
28	CC(C)c1cn(CC[C@H]2CC[C@H](NC(=O)C3CCC3)[C@H](CO)O2)nn1	2.8	i	-2
29	N#C[C@H]1[C@@H](c2ccc(C#CC3(O)CCCC3)cc2)[C@@H](CO)N1C(=O)C1CC1	-1.6	i	1
30	COCc1cn(CC[C@@H]2CC[C@H](NC(=O)c3ccncc3)[C@H](CO)O2)nn1	0.9	i	5

No.	rRNA inh HTS OD600	rRNA inh HTS RFP
16	-2	2.8
17	-2	-3.2
18	6	-0.5
19	6	-0.7
20	3	-5.5
21	5	-1.0
22	2	-3.3
23	4	-0.2
24	8	0.1
25	4	-1.3
26	-38	-10
27	1	-1.2
28	-2	4.0
29	2	0.4
30	14	-0.4

No.	compound	AF4-AF9 inh	FGF22 binding	rRNA inh HTS
31	O=CNc1cc(-c2ccc(C(=O)NC3CC3)cc2)cn2c(-c3ccc(F)c(Cl)c3)cnc12	-3.6	i	-7
32	O=c1cc(CCc2ccccc2)[nH]c(=O)[nH]1	3.3	i	7
33	CC(C)c1c(O)ccc2c1CC[C@H]1C(C)(C)CCC[C@]21C	4.6	i	-14*
34	O=C(C1CCCCC1)N1C[C@H]2[C@@H](c3ccccc31)[C@H](CO)N2Cc1ccccc1Cl	2.3	i	-20
35	CO[C@H]1CN(C)C(=O)c2ccc(NC(=O)Nc3ccccc3F)cc2OC[C@@H](C)N(C(C)=O)C[C@H]1C	0.1	i	-2
36	COc1ccc(S(=O)(=O)N(C)C[C@@H]2OCc3cn(nn3)CCCC(=O)N([C@@H](C)CO)C[C@H]2C)cc1	-2.0&-0.1&-0.2	i	24&0
37	Cc1ccc(NC2(C(N)=O)CCCC2)cc1	-0.4	i	1
38	C[C@H](CO)N1C[C@H](C)[C@@H](CN(C)CC2CC2)Oc2c(NC(=O)Nc3ccc(F)cc3)cccc2C1=O	-1.0	i	-1
39	C[C@@H]1CN([C@@H](C)CO)C(=O)c2cc(NC(=O)CCC(F)(F)F)ccc2O[C@@H](C)CCCCO[C@@H]1CN(C)S(=O)(=O)c1cn(C)cn1	-4.0	i	-2
40	O=C(Nc1ccc2c(c1)[C@@H]1C[C@H](CC(=O)N3CCOCC3)O[C@@H](CO)[C@@H]1O2)C1CCOCC1	-2.6	i	4
41	Cc1noc(C)c1S(=O)(=O)Nc1ccc2c(c1)CC(=O)N([C@@H](C)CO)C[C@H](C)[C@@H](CN(C)C(=O)Nc1ccccc1)O2	-0.6	i	4
42	COc1ccccc1C1CC(=O)Oc2cc(O)ccc21 (stereo not given)	-1.3	i	-10
43	CC(C)NC(=O)C1(C)CCN1C(=O)C1(c2ccccc2)CC1 (stereo not given)	0.2	i	5
44	C[C@H]1CN([C@@H](C)CO)C(=O)CCCn2nncc2CO[C@H]1CN(C)C(=O)CCC(F)(F)F	-2.5&0.1&-0.3	i	3&3
45	CC(C)C#Cc1cnc2c(c1)C(=O)N([C@@H](C)CO)C[C@H](C)[C@H](CN(C)C(=O)Nc1ccccc1)O2	-1.9	i	-4

No.	rRNA inh HTS OD600	rRNA inh HTS RFP
31	-15	4.6
32	17	1.0
33	-27*	4.6*
34	-68	22
35	1	-0.4
36	9&2	3.6&-2.0
37	1	-0.6
38	1	-0.6
39	0	0.7
40	6	-3.3
41	12	-1.0
42	-4	5.9
43	9	-0.6
44	0&0	6.4&0.4
45	-4	-1.8

Another view of five compounds above:
No.	molecule	AF4-AF9 inh	FGF22 binding	rRNA inh HTS	rRNA inh HTS OD600	rRNA inh HTS RFP
38	C[C@H](CO)N1C[C@H](C)[C@@H](CN(C)CC2CC2)Oc2c(NC(=O)Nc3ccc(F)cc3)cccc2C1=O	-1.0	i	-1	1	-0.6
39	C[C@@H]1CN([C@@H](C)CO)C(=O)c2cc(NC(=O)CCC(F)(F)F)ccc2O[C@@H](C)CCCCO[C@@H]1CN(C)S(=O)(=O)c1cn(C)cn1	-4.0	i	-2	0	0.7
41	Cc1noc(C)c1S(=O)(=O)Nc1ccc2c(c1)CC(=O)N([C@@H](C)CO)C[C@H](C)[C@@H](CN(C)C(=O)Nc1ccccc1)O2	-0.6	i	4	12	-1.0
31	O=CNc1cc(-c2ccc(C(=O)NC3CC3)cc2)cn2c(-c3ccc(F)c(Cl)c3)cnc12	-3.6	i	-7	-15	4.6
37	Cc1ccc(NC2(C(N)=O)CCCC2)cc1	-0.4	i	1	1	-0.6

(list continues)
No.	compound	AF4-AF9 inh	FGF22 binding	rRNA inh HTS
46	O=S(=O)(c1ccccc1F)N1CC[C@@H]2[C@H](CO)Nc3ccc(-c4ccccc4)cc3[C@@H]21	2.2	i	-23
47	COc1ccccc1NC(=O)c1ccccc1NC(=O)c1ccccn1	-0.5	i	4
48	COc1cccc(S(=O)(=O)N[C@H]2CC[C@@H](CC(=O)NCc3ccncc3)O[C@H]2CO)c1	-2.8	i	0
49	C[C@@H]1CN([C@@H](C)CO)C(=O)c2cc(NC(=O)Nc3ccc(C(F)(F)F)cc3)ccc2O[C@@H](C)CCCCO[C@H]1CN(C)C(=O)c1ccccc1	1.3	i	1
50	C[C@H]1CN([C@@H](C)CO)C(=O)c2cc(NC(=O)CCCN(C)C)ccc2O[C@H]1CN(C)C(=O)Nc1cccc2ccccc12	-2.1	i	1
51	COCC(=O)N1C[C@H](C)[C@H](OC)CN(C)C(=O)c2cc(NC(=O)NC(C)C)ccc2OC[C@@H]1C	2.7	i	2
52	CO[C@@H]1CN(C)C(=O)c2ccc(NC(C)=O)cc2OC[C@@H](C)N(CCc2ccccc2)C[C@@H]1C	1.2	i	1
53	O=Cc1ccc(-c2c(-c3ccccc3)oc3c2C(OCCCCO)CCC3)o1 (stereo not given)	-0.1	i	4
54	CO[C@@H]1CC[C@H]2CCOc3c(C#N)cccc3C(=O)N(C)CCCC(=O)N(C)C[C@H]1O2	-4.1	i	3
55	O=C1OC=NC1=Cc1ccccc1	0.8	i	10
56	C[C@H](CO)N1C[C@H](C)[C@@H](CN(C)C(=O)Nc2ccc3c(c2)OCO3)OCCCC[C@H](C)Oc2ccc(NC(=O)Nc3cccc4ccccc34)cc2C1=O	-0.5	i	-1
57	CC(=O)N(C[C@@H]1N[C@@H](CO)[C@@H]1c1ccc(-c2cccnc2)cc1)C1CCCC1	-2.2&-1.5	i	0
58	CNc1cccc(-c2ccccc2C(C)=O)n1	-0.4	i	3
59	Cc1noc(C)c1NC(=O)N(C)C[C@H]1Oc2ccc(NC(=O)Cc3cn(C)c4ccccc34)cc2C(=O)N([C@H](C)CO)C[C@@H]1C	-8.4	i	3
60	CO[C@H]1CN(C)C(=O)c2ccc(NC(=O)C3CC3)cc2OC[C@@H](C)N(CCC(F)(F)F)C[C@H]1C	1.4	i	-5

No.	rRNA inh HTS OD600	rRNA inh HTS RFP
46	-55	5.2
47	13	-3.1
48	6	0.6
49	7	-0.6
50	-2	-0.8
51	-3	-0.1
52	4	0.7
53	9	3.9
54	1	-3.4
55	13	-1.4
56	6	0.1
57	-1	1.0
58	8	-3.9
59	6	-1.3
60	2	0.3

No.	compound	AF4-AF9 inh	FGF22 binding	rRNA inh HTS
61	CCC(=O)N1[C@H](CO)[C@@H](c2ccc(-c3ccc(F)cc3)cc2)[C@@H]1CN(C)C(C)=O	-1.1	i	-2
62	C[C@@H]1CN([C@@H](C)CO)C(=O)c2cc(NC(=O)C3CCCCC3)ccc2O[C@@H]1CN(C)Cc1ccc(Cl)c(Cl)c1	-0.3	i	-5
63	CCCN(C)C[C@H]1Oc2cc(C#Cc3cccc(F)c3)ccc2S(=O)(=O)N([C@H](C)CO)C[C@@H]1C	0.6	i	-1
64	Cc1c(C(=O)O)[nH]c2ccc([N+](=O)[O-])cc12	-2.1	i	-4

No.	rRNA inh HTS OD600	rRNA inh HTS RFP
61	-5	-1.3
62	-8	5.4
63	0	-4.4
64	-10	0.5

The list is partial (hit frequency here may not be typical).
